# HSV augment = HSV replication enhancement; HSV replication augmentation in cells, fold increase; maximum fold increase; hit rate 0.005% among 220,000; AID 1956;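 active = peak rise of 1.5-fold or more in the series; tested in PC3 cells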;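 note: first round at 10 µM; read as green reporter fluorescence; hits show the peak of a series up to 25 µM; 1 = signal of infected wells without compound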
# RGS16-Gao HTS = RGS16-Galphao interaction regulator (human); bead-based flow cytometry RGS16-Galphao binding, fluorescence; actives lie on both sides; hit rate 0.38% among 220,000; binding response (% of control), % at 10 µM;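 active = below 25% or above 175%, edge rows of some plates excepted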;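 note: Galphao activated by GDP with aluminum fluoride before binding; 100% = wells without compound and 0% = beads without RGS; some results beyond the cut were filed as inactive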
# Target sequence (O15492 whole entry, looked up): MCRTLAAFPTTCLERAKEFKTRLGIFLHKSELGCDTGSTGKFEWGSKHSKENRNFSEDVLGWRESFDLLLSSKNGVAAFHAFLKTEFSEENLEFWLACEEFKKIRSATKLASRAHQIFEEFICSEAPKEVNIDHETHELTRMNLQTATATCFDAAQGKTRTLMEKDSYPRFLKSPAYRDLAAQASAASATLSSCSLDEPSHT
# Target sequence (P09471 whole entry, looked up): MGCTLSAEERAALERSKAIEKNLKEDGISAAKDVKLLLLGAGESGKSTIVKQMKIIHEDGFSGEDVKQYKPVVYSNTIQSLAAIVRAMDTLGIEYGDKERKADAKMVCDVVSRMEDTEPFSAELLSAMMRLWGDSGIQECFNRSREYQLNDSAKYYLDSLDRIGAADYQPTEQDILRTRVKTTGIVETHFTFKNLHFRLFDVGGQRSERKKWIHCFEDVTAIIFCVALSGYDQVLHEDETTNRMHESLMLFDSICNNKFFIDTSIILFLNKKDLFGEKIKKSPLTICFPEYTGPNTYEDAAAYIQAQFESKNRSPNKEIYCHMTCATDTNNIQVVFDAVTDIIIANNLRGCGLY
# HSV augment primary fold = second read-out of HSV augment, no call of its own (marks repeat the call); fold increase; compound at 10 µM; measured here: primary screen fold increase 10 uM; tested in PC3 cells;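 GFP signal in the first replicate; 1 = infected wells without compound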
# The depositor's hits bear a star; i = inactive; · = not tested or not shown.
no. | canonical_smiles | HSV augment | HSV augment primary fold | RGS16-Gao HTS
1 | CCn1nc(-c2cccs2)nc2c(=O)n(C)c(=O)nc1-2 | · | · | 100
2 | CN1C(=O)CN=C(c2ccccc2)c2cc([N+](=O)[O-])ccc21 | · | · | 99
3 | O=C1CCCN1CC#CCN1CCCC1 | · | · | 99
4 | COC(=O)C1=C(c2cccc(OC)c2OC)C[C@@H]2CC[C@H]1N2C(=O)NCCO | i | 0.63 | ·
5 | CCC1(c2ccc(N)cc2)CCC(=O)NC1=O (centres undefined) | i | 0.84 | ·
6 | COC(=O)C1=C(c2cc3ccccc3o2)C[C@@H]2CC[C@H]1N2C(=O)NC1CCCCC1 | i | 0.88 | ·
7 | C[C@H]1C/C=C/[C@H]2[C@H](O)[C@H](C)[C@@](C)(O)[C@H]3[C@H](Cc4ccccc4)NC(=O)[C@]32[C@H](O)/C=C/[C@](C)(O)C1 | i | 0.87 | ·
8 | COC(=O)C1=C(c2cc3ccccc3o2)C[C@@H]2CC[C@H]1N2C(=O)N1CCCCC1 | i | 0.65 | ·
9 | COC(=O)C1=C(c2ccc(S(C)(=O)=O)cc2)C[C@@H]2CC[C@H]1N2C(=O)NCc1ccc(C(F)(F)F)cc1 | i | 0.9 | ·
10 | C[N+]1(CCC(C(N)=O)(c2ccccc2)c2ccccc2)CCCCC1 | i | 0.87 | ·
11 | COC(=O)C1=C(c2ccccc2)C[C@@H]2CC[C@H]1N2C(=O)NCCO | i | 0.91 | ·
12 | Nc1ccc(CCN2CCN(c3cccc(C(F)(F)F)c3)CC2)cc1 | i | 0.68 | ·
13 | COC(=O)C1=C(c2cccc(OC)c2OC)C[C@@H]2CC[C@H]1N2C(=O)NCc1ccc(F)cc1 | i | 0.57 | ·
14 | CNCCc1ccc(O)c(O)c1 | i | 0.69 | ·
15 | CC(N)Cc1c[nH]c2ccc(OCc3cccs3)cc12 (centres undefined) | i | 0.69 | ·
16 | O=C(Nc1cccc(Cl)c1)c1c(O)c2c(n(Cc3ccco3)c1=O)CCCC2 | i | 0.83 | ·
17 | CCN1C[C@@]2(COC)C3[C@@H](OC)[C@H]4[C@@H]1[C@@]3(C1C[C@H]3[C@H](OC(=O)c5ccccc5)C1[C@]4(OC(C)=O)C[C@H]3OC)[C@@H](OC)C[C@H]2O (some centres undefined) | i | 1.1 | ·
18 | COC(=O)C1=C(c2ccccc2)C[C@@H]2CC[C@H]1N2C(=O)NCc1cccc2ccccc12 | i | 0.76 | ·
19 | CCOC(=O)C1(c2ccccc2)CCN(CCC(C#N)(c2ccccc2)c2ccccc2)CC1 | i | 1 | ·
20 | COC(=O)C1=C(c2cccc(OC)c2OC)C[C@@H]2CC[C@H]1N2C(=O)N1CCCCC1 | i | 0.88 | ·

# Remaining list, next part
item	structure	HSV augment	HSV augment primary fold	RGS16-Gao HTS
21	COC(=O)C1=C(c2cccc(OC)c2OC)C[C@@H]2CC[C@H]1N2C(=O)NCCS(C)=O (some centres undefined)	i	1.2	·
22	C[C@]12N[C@H](Cc3ccccc31)c1ccccc12	i	0.91	·
23	CN1C2CCC1CC(OC(c1ccccc1)c1ccccc1N)C2 (centres undefined)	i	0.71	·
24	CCC/C=C(\CCC)C(NP(=O)(c1ccccc1)c1ccccc1)c1ccccc1 (centres undefined)	i	0.91	·
25	COc1ccc2c(c1O)-c1cccc3c1[C@@H](C2)N(C)CC3	i	0.9	·
26	COC(=O)C1=C(c2cccc(OC)c2OC)C[C@@H]2CC[C@H]1N2C(=O)NCc1ccccc1	i	0.77	·
27	COC(=O)C1=C(c2ccc(S(C)(=O)=O)cc2)C[C@@H]2CC[C@H]1N2C(=O)NC1CC1	i	1.1	·
28	O=C(NC1CCCCC1)[C@@H]1CC=C[C@@H]2CCN(Cc3ccccc3)C(=O)[C@@H]21	i	0.83	·
29	CCN1C[C@]2(COC)CC[C@H](O)[C@@]34C5C[C@H]6[C@H](O)C5[C@](O)(C[C@H]6OC)[C@@H]([C@H](OC)C23)[C@@H]14 (some centres undefined)	i	0.87	·
30	COC(=O)C1=C(c2cccc(OC)c2OC)C[C@@H]2CC[C@H]1N2C(=O)NCC1CC1	i	0.97	·
31	Cc1cccc(N/N=C/c2c(O)[nH]c(=S)[nH]c2=O)c1	i	0.95	·
32	COC(=O)C1=C(c2ccc(S(C)(=O)=O)cc2)C[C@@H]2CC[C@H]1N2C(=O)NC1CCCCC1	i	0.79	·
33	Clc1cc(I)cc(Cl)c1NC1=NCCN1	i	0.61	·
34	COC(=O)C1=CO[C@H](C)[C@H]2CN3CC[C@@]4(C(=O)Nc5ccccc54)[C@@H]3C[C@H]12	i	1.1	·
35	NCCc1ccccc1	i	0.81	·
36	COC(=O)C1=C(c2cc3ccccc3o2)C[C@@H]2CC[C@H]1N2C(=O)NCCO	i	1.3	·

# 2 of the compounds above, with values under each structure.
# Value order: HSV augment	HSV augment primary fold	RGS16-Gao HTS
23: CN1C2CCC1CC(OC(c1ccccc1)c1ccccc1N)C2 (centres undefined)
 : i	0.71	·
24: CCC/C=C(\CCC)C(NP(=O)(c1ccccc1)c1ccccc1)c1ccccc1 (centres undefined)
 : i	0.91	·

# Shown with values under each structure: entries from further up
# Values in the order – HSV augment | HSV augment primary fold | RGS16-Gao HTS
10: C[N+]1(CCC(C(N)=O)(c2ccccc2)c2ccccc2)CCCCC1
→ i | 0.87 | ·
11: COC(=O)C1=C(c2ccccc2)C[C@@H]2CC[C@H]1N2C(=O)NCCO
→ i | 0.91 | ·
12: Nc1ccc(CCN2CCN(c3cccc(C(F)(F)F)c3)CC2)cc1
→ i | 0.68 | ·
13: COC(=O)C1=C(c2cccc(OC)c2OC)C[C@@H]2CC[C@H]1N2C(=O)NCc1ccc(F)cc1
→ i | 0.57 | ·
14: CNCCc1ccc(O)c(O)c1
→ i | 0.69 | ·
15: CC(N)Cc1c[nH]c2ccc(OCc3cccs3)cc12 (centres undefined)
→ i | 0.69 | ·
16: O=C(Nc1cccc(Cl)c1)c1c(O)c2c(n(Cc3ccco3)c1=O)CCCC2
→ i | 0.83 | ·

# Screening data from PubChem BioAssay.

# Only part of the results is shown; rates above refer to the full screens.
